Assay outcomes deposited in PubChem BioAssay by several laboratories.
Mtb hypoxia inh: inhibitors of hypoxia-regulated fluorescent reporter in Mycobacterium tuberculosis. M. tuberculosis hypoxia-regulated fluorescent reporter, fluorescence. 300,000 compounds, 0.1% hits. fluorescence inhibition, % (no concentration beside the values). AID 1159583;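 active means 35 to 45% if threefold the growth effect, above 45% if 1.5-fold the growth effect; inactive means the rest, general growth blockers included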;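 further: wells of about 50 µL received 100 nL stock; 0% = vehicle wells and 100% = reference inhibitor wells; whole bacteria with a GFP reporter of the hypoxia response; strong numbers were not always called active; many hits fall short of the cut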
BJeLR viability: kills HRASV12-expressing BJeLR cells; BJeLR (HRASV12) viability, CellTiter-Glo ATP luminescence, 48 h; reference of the scale not given here; inhibition, % (concentration not given with the values); 300,000 compounds, 0.17% hits;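 active means replicate mean above 50%; inconclusive means above 50% but judged a plate artefact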;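 further: 50 nL library stock added to about 25 µL; numbers are from one replicate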
Sa RN4220 lethal: kills Staphylococcus aureus RN4220. S. aureus RN4220 growth, OD600, 16 h. inhibition, % (concentration not given with the values). 330,000 compounds, 0.33% hits. AID 1259311;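 active means z-score of -3 or lower and OD600 up to 0.18 on both plates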;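 further: plate controls were untreated cells for no effect and reference antibiotic for full effect; stock transfer was 100 nL into about 80 µL; one replicate is shown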
Bead autofluor: counter-screen for toxin protease inhibitors: compound fluorescence; compound autofluorescence counterscreen, microsphere flow cytometry; hits give high values; fluorescence intensity (concentration not given with the values); 360,000 compounds, 3.1% hits; AID 624483;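 active means at least 3 SD above the mean of all compounds, about 16000 in these data; inconclusive means too few beads counted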;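 further: 100 nL of 1 mM stock went into each well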
PrP UTR inh: suppresses PrP 5' UTR mRNA reporter expression; cell-based PrP 5' UTR mRNA reporter, plate reader; inhibition, % (concentration not given with the values); 340,000 compounds, 0.35% hits; AID 488862;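 active means every replicate at 50% or more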;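 further: 0 = median of the neutral control wells; tested in H4 reporter cells; numbers are from one replicate; inactives centre near -14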
Sa ugtP lethal: kills S. aureus RN4220 lacking UgtP. S. aureus RN4220 ugtP deletion, OD600 growth, 16 h; some inactives read as strong as hits. 330,000 compounds, 0.54% hits. growth inhibition, % (test concentration not listed);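 active means z-score under -3 and OD600 up to 0.15 on both plates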;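 further: plate controls were untreated wells for no effect and antibiotic for full effect; wells of about 80 µL received 100 nL stock; the first replicate is given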
Mtb hypoxia inh growth: further read-out of Mtb hypoxia inh, marked with its call; growth inhibition, %; measured here: M. tuberculosis growth (absorbance);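 0% = vehicle and 100% = reference antibiotic; read after six days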
* hit, by the source's call; ? = inconclusive; . = not tested or not shown.

entry	canonical_smiles	Mtb hypoxia inh	Mtb hypoxia inh growth	BJeLR viability	Sa RN4220 lethal	Bead autofluor	PrP UTR inh	Sa ugtP lethal
1	CC1(C)OC(=O)C(=CNn2cnc3ccccc3c2=O)C(=O)O1	4	4	9	-1.2	8217	-4	0
2	CS(=O)(=O)c1ccc(NCCN2CCOCC2)c([N+](=O)[O-])c1	5	-3	-3	6.0	5867	-22	10
3	CC(=O)Oc1ccc(CCC(C)OC(C)=O)cc1 (centres undefined)	17	2	4	1.0	10363	-25	3
4	COc1cccc(CNC(=O)C2CCN(S(=O)(=O)N3CCC4(CC3)OCCO4)CC2)c1	7	5	-8	3.2	2187	-16	3
5	CC1(C)Oc2ccc3ccc(=O)oc3c2/C(=C/NC2CCCCC2)C1=O	.	.	-2	0.3	3451	1	23
6	COc1cc(OC)cc(C(=O)NNC(=O)CCC(=O)c2cc(C)sc2C)c1	5	3	.	1.3	3958	-8	3
7	COc1ccc(Cl)cc1N(C)C(=O)CCNC(=O)Cn1cnc2ccccc2c1=O	1	7	-1	5.2	5716	-29	12
8	O=C(NCc1ccccc1)C12CC3CC(CC(C3)C1)C2	.	.	-4	4.7	5549	-22	5
9	Cc1c(OCC(=O)N[C@@H](Cc2c[nH]c3ccccc23)C(=O)O)ccc2c1oc(=O)c1ccccc12	.	.	8	-5.9	5330	-57	10
10	CCCCC1C(=O)NN(c2ccccc2)C1=O (centres undefined)	6	6	.	4.7	4029	-36	0
11	CCOc1cc(C(=O)N/N=C/C(Br)=C/c2ccccc2)cc(OCC)c1OCC	.	.	38	.	2678	-25	.
12	CC(=O)N(c1ccc2oc(=O)sc2c1)S(=O)(=O)c1cccs1	2	4	-8	-4.1	8349	-15	-2
13	COc1cc(C(=O)Nc2c(C)cc(C)cc2C)c(Br)c(OC)c1OC	1	0	-2	23	2249	-11	13
14	N#Cc1ccccc1OCC(=O)OCC(=O)NC1CCCC1	6	5	.	-1.0	3463	-6	4
15	CC(=NNC(=O)COc1cccc2ccccc12)c1cccs1	-6	2	.	7.5	.	.	11
16	CC(=O)Nc1ccc(/C=N/NC(=S)NC(C)C)cc1	.	.	-2	.	4489	-1	.
17	COc1ccc(-n2c(/C=C/c3ccc(O)c(OC)c3)nc3ccccc3c2=O)cc1	-8	5	-7	1.9	2862	-16	-2
18	CCOC(=O)N1CCN(C(=O)CN(C)S(=O)(=O)c2ccc(F)cc2)CC1	12	5	2	3.7	6251	-25	0
19	CCN(CC)C(=O)c1ccc(O)c(OC)c1	-4	2	-15	4.2	5707	-5	2
20	CCNS(=O)(=O)c1ccc(CCC(=O)N2CCN(c3cccc(Cl)c3)CC2)cc1	14	-1	0	9.9	3935	-12	3
21	CCOc1ccc(CNC(=O)c2ccc(Sc3ccc(Cl)cc3)c(NC(C)=O)c2)cc1	1	-7	0	-9.1	2432	-11	-13
22	Cn1c(CCN2CCN(c3ccccn3)CC2)nc2cc(NC(=O)COc3ccc(Cl)cc3)ccc21	8	0	4	3.8	6261	-23	3
23	COc1ccc(NC(=O)/C(C#N)=C/c2cccnc2)c(OC)c1	-5	-10	2	-3.0	4596	1	-3
24	COc1cccc2cc(-c3cc(=O)oc4ccc(O)cc34)oc12	9	3	-1	9.0	3723	-21	-16
25	Cc1cc(C)nc(Nc2n[nH]c(-c3ccccc3N)n2)n1	5	4	10	1.4	3756	-46	3
26	CC[C@@]1(C(=O)OC)N[C@H](CN(C)C(=O)Nc2ccc(OC)cc2)[C@@H]2C(=O)N(Cc3ccccc3)C(=O)[C@@H]21	-5	4	.	4.3	3013	-13	3
27	Cc1cc(S(=O)(=O)N=C(N)c2ccc(C(N)=O)cc2)cc(C)c1F	4	7	.	-0.5	.	.	21
28	NC(=O)c1ccc(Oc2ncc(C(F)(F)F)cc2Cl)cc1	5	2	5	1.5	4878	-16	10
29	COc1ccc(-n2c(C)ccc2-c2ccccc2)cn1	.	.	-2	.	3714	2	.
30	O=C(CSC(=S)N1CCN(c2ccccc2)CC1)Nc1nc(-c2ccccc2)c(-c2ccccc2)o1	-2	-2	2	-4.6	2204	-13	19
31	COCc1cc(=O)[nH]c(-c2csc(C)n2)n1	16	4	-8	3.2	4912	-17	5
32	Cc1ccc(N(C(=O)c2csnn2)C(C(=O)NC2CCCC2)c2ccncc2)c(C)c1 (centres undefined)	-7	1	-2	3.4	3847	-11	3
33	O=C(O)Cn1cc(C(=O)c2ccccc2)c2ccccc21	-2	6	0	-2.2	18398*	-23	-6
34	CCC(C=NNc1ccc(S(=O)(=O)N2CCCC2)cc1[N+](=O)[O-])CC	6	-3	.	7.5	.	.	9
35	CC(C)(C)OC(=O)[C@H](Cc1ccccc1)NC(=O)c1nc[nH]c1C(=O)NC1CCNCC1	.	.	-5	.	3524	-6	.
36	CC(=O)Oc1ccc(C(=O)NCCc2ccccc2)cc1	4	6	-8	3.0	3321	-4	4
37	CN(C(=S)Oc1ccc(C(=O)Nc2ccccc2)cc1)c1ccccc1	4	6	5	-8.0	9385	-19	14
38	COc1cc(C(=O)NC(=S)Nc2ccc3oc(=O)ccc3c2)cc(OC)c1OC	3	4	-1	6.4	4792	-1	7
39	N=c1c(S(=O)(=O)c2ccccc2)cc2c(=O)n3ccccc3nc2n1Cc1cccnc1	0	2	-8	1.0	?	0	-7
40	CCCC1(C2CCCC2)NC(=O)NC1=O (centres undefined)	13	11	.	4.8	3399	-16	3
41	Cc1ccnc(NC(=O)C2CCCN(S(=O)(=O)c3cnc[nH]3)C2)c1 (centres undefined)	.	.	0	5.1	5238	-6	-6
42	CC(NC(=O)COC(=O)CCc1ccc(S(=O)(=O)N2CCOCC2)cc1)C1CC2CCC1C2 (centres undefined)	-1	0	-6	5.0	1921	11	5
43	Cc1cc(Nc2ccc(F)cc2Cl)n2nc(C)nc2n1	.	.	-24	1.9	5571	-10	2
44	Cc1cc(C)n(-c2ccc(C(=O)OCC(=O)Nc3ccc(S(=O)(=O)N4CCOCC4)cc3)cc2)n1	14	19	0	3.4	3796	-2	-2
45	O=C(Nc1ccc(N2CCOCC2)c(S(=O)(=O)Nc2ccccc2Cl)c1)c1ccc(=O)[nH]n1	6	-2	.	62	5032	-13	20
46	CN(C(N)=S)c1ccccc1	.	.	-1	5.6	3511	-2	8
47	COc1ccc(C(C(=O)NC(C)(C)C)N(C(=O)CCC(=O)Nc2cc(C)on2)c2cccc(F)c2)cc1 (centres undefined)	12	0	-4	2.6	5373	-10	11
48	COc1cc2c(cc1OC)C1C(=O)c3ccc4c(c3OC1CO2)CC(C(C)(C)O)O4 (centres undefined)	16	13	.	4.6	.	.	-1
49	C=C1CCN(CC(=O)OC)S(=O)(=O)c2ccccc21	3	-4	5	-2.9	3583	-19	-4
50	O=c1c2ccccc2c(-c2ccccc2)nn1-c1cc(Cl)cc(Cl)c1	4	4	0	2.1	.	.	12
51	O=C(O)C1C2CCC(C2)C1C(=O)NCCc1ccccc1 (centres undefined)	20	13	8	0.2	4191	-69	4
52	COc1cccc(CNC(=O)c2cc(C3CC3)nc3c2cnn3C(C)C)c1	11	6	.	-4.9	3407	-14	-5
53	COC(=O)c1sccc1NC(=O)c1ccc2c(c1)OCO2	2	11	2	17	8418	-3	-6
54	CCOC(=O)C(NC(=O)CC(C)C)(Nc1sc(C)c(CC)c1C#N)C(F)(F)F (centres undefined)	5	4	11	4.3	2596	-23	9
55	O=C(CN1C(=O)C(=O)c2ccccc21)NCCc1ccccc1	8	3	5	8.5	4180	-13	20
56	Cc1cccc(NC(=O)c2ccc(Cl)c(S(=O)(=O)N3CCCCCC3)c2)n1	9	4	.	35	3787	-27	0
57	C[C@]12C(=O)N(c3cccc(Cl)c3)C(=O)N1C1c3ccccc3OCC1C2c1ccccc1 (some centres undefined)	12	1	.	3.2	.	.	-8
58	O=C(NNC(=S)NC(=O)c1ccccc1)c1ccc([N+](=O)[O-])cc1	8	6	-8	21	4072	-9	5
59	CC(C)(C)c1ccc(OCCC(=O)OCC(=O)NC(=O)NC2CCCC2)cc1	15	11	-6	4.5	?	-15	8
60	Cc1cc(C)n2nc(C(=O)Nc3cccc(S(=O)(=O)N4CCCC4)c3)nc2n1	14	12	3	2.4	3985	-12	4

Sorted by count of non-hydrogen atoms (lowest first): some entries from above.
entry	canonical_smiles	Mtb hypoxia inh	Mtb hypoxia inh growth	BJeLR viability	Sa RN4220 lethal	Bead autofluor	PrP UTR inh	Sa ugtP lethal
46	CN(C(N)=S)c1ccccc1	.	.	-1	5.6	3511	-2	8
49	C=C1CCN(CC(=O)OC)S(=O)(=O)c2ccccc21	3	-4	5	-2.9	3583	-19	-4
43	Cc1cc(Nc2ccc(F)cc2Cl)n2nc(C)nc2n1	.	.	-24	1.9	5571	-10	2
53	COC(=O)c1sccc1NC(=O)c1ccc2c(c1)OCO2	2	11	2	17	8418	-3	-6
55	O=C(CN1C(=O)C(=O)c2ccccc21)NCCc1ccccc1	8	3	5	8.5	4180	-13	20
58	O=C(NNC(=S)NC(=O)c1ccccc1)c1ccc([N+](=O)[O-])cc1	8	6	-8	21	4072	-9	5
50	O=c1c2ccccc2c(-c2ccccc2)nn1-c1cc(Cl)cc(Cl)c1	4	4	0	2.1	.	.	12
56	Cc1cccc(NC(=O)c2ccc(Cl)c(S(=O)(=O)N3CCCCCC3)c2)n1	9	4	.	35	3787	-27	0
59	CC(C)(C)c1ccc(OCCC(=O)OCC(=O)NC(=O)NC2CCCC2)cc1	15	11	-6	4.5	?	-15	8
48	COc1cc2c(cc1OC)C1C(=O)c3ccc4c(c3OC1CO2)CC(C(C)(C)O)O4 (centres undefined)	16	13	.	4.6	.	.	-1
57	C[C@]12C(=O)N(c3cccc(Cl)c3)C(=O)N1C1c3ccccc3OCC1C2c1ccccc1 (some centres undefined)	12	1	.	3.2	.	.	-8
45	O=C(Nc1ccc(N2CCOCC2)c(S(=O)(=O)Nc2ccccc2Cl)c1)c1ccc(=O)[nH]n1	6	-2	.	62	5032	-13	20
44	Cc1cc(C)n(-c2ccc(C(=O)OCC(=O)Nc3ccc(S(=O)(=O)N4CCOCC4)cc3)cc2)n1	14	19	0	3.4	3796	-2	-2
47	COc1ccc(C(C(=O)NC(C)(C)C)N(C(=O)CCC(=O)Nc2cc(C)on2)c2cccc(F)c2)cc1 (centres undefined)	12	0	-4	2.6	5373	-10	11

(list continues)
entry	canonical_smiles	Mtb hypoxia inh	Mtb hypoxia inh growth	BJeLR viability	Sa RN4220 lethal	Bead autofluor	PrP UTR inh	Sa ugtP lethal
61	O=C(N/N=C\c1cc2c(cc1Cl)OCO2)c1ccc(Br)s1	.	.	9	.	4083	1	.
62	C/C(=C\C(=O)c1c(O)cc(C)oc1=O)N(C)C	-4	-3	4	3.8	4531	-29	7
63	CC(C)CCc1noc(CN2CCN(CC(=O)NC(C)C)CC2)n1	-9	4	13	1.6	3393	-4	2
64	CCOC(=O)N1CCN(CCC(=O)Nc2cc(OC)ccc2OC)CC1	14	9	-5	3.1	4482	-18	5
65	Cc1ccccc1Cn1cnc2ccccc21	11	0	8	0.0	4632	-7	6
66	COc1ccc(C)cc1N(C(=O)CNC(=O)c1ccco1)C(C(=O)NCC1CCCO1)c1ccccc1 (centres undefined)	-5	6	-5	0.6	3704	-4	10
67	COc1ccc(F)c(-c2nc(CN3CCN(C(=O)c4ccco4)CC3)c(C)o2)c1	10	6	-8	1.4	?	4	7
